Screens as filed in PubChem BioAssay.
TRPV1 PAM = enhances activation of the human vanilloid receptor TRPV1; potentiation, % at 8.33 µM; actives 0.02% (n = 320,000); Q8NER1; TRPV1-expressing cells, Fluo-8 calcium influx, capsaicin EC20 potentiation; host cell line not named in the record; control for the full effect not named in the record; active means potentiation above 80%; inconclusive means 30% to 80%; inactive means below 30%; also: 0% is about no effect
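Cells expressing TRPV1 were dye-loaded with Fluo-8 and read kinetically: 10 s baseline, 3 min after compound (agonist portion), then 2 min after EC20 capsaicin (allosteric enhancer portion). Calcium-bound dye fluorescence at 480/520 nm.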
CtBP-E1A blk = blocks the CtBP interaction with E1A; AlphaScreen GST-E1A/His-CtBP binding, 1536-well; active compounds read low; control for the full effect not named in the record; activity change, % (test concentration not listed); actives 0.49% (n = 340,000); AID 651724; in the data active means activity change below about -65%; inconclusive means about -30% to -65%; inactive means above about -30%; also: % is scaled to controls: 0 for no effect and ±100 for the full control effect
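In 5 uL wells, 23 nL compound meets equimolar GST-E1A and His-CtBP (5X stock 125 nM each) for 2 h, 37 °C. Beads (5X, 50 ug/mL) then 1 h, 37 °C, dark.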
D2 ag = activates the human D2 dopamine receptor; P14416; DiscoveRx PathHunter D2 beta-arrestin, luminescence, 90 min; 100% = 57 uM dopamine signal; activation, % (concentration not given with the values); actives 0.084% (n = 360,000); in the data active = activation above about 40%; inconclusive = about 15% to 40%; inactive = below about 15%; also: compound concentration not given in the record; the text of the record calls up to 30% inactive
Target sequence (P14416 whole entry, looked up): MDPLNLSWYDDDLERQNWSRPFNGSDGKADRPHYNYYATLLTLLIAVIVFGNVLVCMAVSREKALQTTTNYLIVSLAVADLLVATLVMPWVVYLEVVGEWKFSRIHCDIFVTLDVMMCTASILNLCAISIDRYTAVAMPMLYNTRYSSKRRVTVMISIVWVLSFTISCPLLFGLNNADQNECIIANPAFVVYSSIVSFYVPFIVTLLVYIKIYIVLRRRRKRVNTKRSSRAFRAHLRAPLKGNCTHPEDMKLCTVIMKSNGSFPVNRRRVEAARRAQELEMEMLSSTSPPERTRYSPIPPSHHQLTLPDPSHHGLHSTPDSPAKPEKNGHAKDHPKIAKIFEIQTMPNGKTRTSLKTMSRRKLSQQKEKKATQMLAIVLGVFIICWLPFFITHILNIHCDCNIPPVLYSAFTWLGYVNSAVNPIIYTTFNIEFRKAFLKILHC
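Agonist mode: compounds alone added to overnight-plated D2 PathHunter cells for 90 min at 37 C, with 57 uM final dopamine (EC100) defining full response. Beta-arrestin recruitment detected by chemiluminescent reagent, read after 1 h at ambient temperature.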
Sfp PPTase inh = blocks B. subtilis Sfp PPTase activity; Q9F4F7; Biochemical Sfp PPTase activity, qHTS; Potency, µM, for the others: max response, negative = inhibition, actives largely listed as inhibitors; actives 3.5% (n = 310,000); active = well fitted inhibition curve with a large enough effect; inconclusive = small, poorly fitted or top-dose-only effect, or another doubt; inactive = no such curve, though single readings can be large or run the other way;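 also: the enzyme is Sfp with the accession as filed and its product quenches rhodamine fluorescence; potency is read from the fitted curve at half-maximal effect; 0% = enzyme reaction without inhibitor and -100% = no enzyme wells; top concentration of the series not given in the record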
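Compounds were incubated with enzyme (final 15 nM) for 15 min at room temperature before substrate addition started the reaction. Fluorescence at 525 nm excitation, 598 nm emission was recorded immediately and after 30 minutes.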
D2 PAM = human D2 receptor positive allosteric modulation; potentiation, % (no concentration beside the values); P14416; DiscoveRx D2 beta-arrestin cells, luminescence, 90 min; 100% = 57 uM dopamine signal; actives 0.23% (n = 360,000); AID 624464; active = potentiation of 50% or more; inconclusive = 30% to 50%; inactive = 30% or less;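 also: compound concentration not given in the record; tested on top of an EC20 dose of dopamine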
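PathHunter beta-arrestin assay in DiscoveRx D2 cells. Compounds were added with an EC20 of dopamine (50 nM final) for 90 min at 37 deg C. Luminescence was read 1 h after detection reagent, with 57 uM dopamine as the EC100 control.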
Six1-Eya2 blk = inhibitors of human Six1/Eya2 interaction | AlphaScreen GST-Six1/His-Eya2 binding, biochemical; active compounds read low; control for the full effect not named in the record | activity change, % (no concentration beside the values) | actives 0.56% (n = 360,000) | AID 651725; in the data active = activity change below about -65%; inconclusive = about -30% to -65%; inactive = above about -30%; also: % is scaled to controls: 0 for no effect and ±100 for the full control effect
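AlphaScreen with GST-Six1 and His-Eya2 (5X mix: 250 nM and 500 nM), glutathione donor and nickel acceptor beads; buffer 50 mM Tris pH 8.0, 300 mM NaCl, 1 mM TCEP; 1 h at 37 C in the dark.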
PINK1 expr mod = PINK1 expression modulation; PINK1 immunofluorescence, high-content cytometry, 24 h; Potency, µM (series often up to 76.6 µM), for the others: at the highest dose activation (PINK1 increase), most hits filed as activators; actives 0.2% (n = 410,000); AID 624263; active = well fitted activation curve with a large enough effect; inconclusive = small, poorly fitted or top-dose-only effect; inactive = flat fitted curve, though single readings scatter; cell line not stated here;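 also: potency is read from the fitted curve at half-maximal effect; % of control where 0% means no effect; nearly all actives have a fitted effect of over 65% in size; a mitochondrial uncoupler was the plate control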
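Cells are seeded, rested 12 hours, then given compound at five concentrations or DMSO for 24 hours. After fixation, blocking and antibody staining, PINK1 amount and mitochondrial localization are scored; CCCP serves as control.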
Numbers without * were called inactive; ? = inconclusive; . = not tested or not shown; [ ] = dose if it differs, or a comment.

Second line of a record: TRPV1 PAM	CtBP-E1A blk	D2 ag	Sfp PPTase inh	D2 PAM	Six1-Eya2 blk	PINK1 expr mod
[1] CN1CCC(N(C)S(=O)(=O)c2ccc(NC(=O)COc3cccc(Cl)c3)cc2)CC1
    3	-5	-4.4	.	-28	-10	6.9%
[2] CN(C)S(=O)(=O)c1ccc(C(=O)Nc2ccccc2[N+](=O)[O-])cc1
    -13	-7	1.1	-21%	-3	-2	-0.9%
[3] Cc1ccccc1N1CCN(C2CCCN(C(=O)c3cc(C(C)C)[nH]n3)C2)CC1 (stereo not given)
    18	0	-4.3	3%	-48	19	-0.2%
[4] CC(=O)c1ccc(NC(=O)C2CCC(C)NC2=O)cc1 (stereo not given)
    -6	4	-2.0	19%	-13	3	0.4%
[5] Cc1ccnc(NC(=O)c2sc3ccccc3c2Cl)c1
    -12	9	1.8	8%	-5	11	6.4%
[6] NC(=O)C1CCCN(Cc2ccc(Cl)cc2)C1 (stereo not given)
    -4	-3	1.9	-2%	-4	1	-1.0%[38.3 µM]
[7] Cc1cccc(C)c1NS(=O)(=O)c1ccc(NC(=O)c2ccc(Cl)c([N+](=O)[O-])c2)cc1
    -2	.	1.2	0%	-6	-1	-2.2%
[8] c1ccc(C2OC3c4cccc5cccc(c45)C3N2c2ccccc2)cc1 (stereo not given)
    7	-16	-16	9%	-40	-10	8.8%
[9] O=C(CNc1cccc(C(F)(F)F)c1)Nc1cccc(S(=O)(=O)N2CCCC2)c1
    16	-6	7.1	.	-3	-1	?
[10] C/C=C/c1ccccc1OCc1ccc(C(=O)O)o1
    3	0	-3.1	23%	-19	5	-1.7%
[11] CCC(NS(=O)(=O)c1ccc(C)cc1)C(=O)N1CCOCCOCCOCCOCC1 (stereo not given)
    4	-9	-5.2	22%	9	-1	1.2%
[12] CCOc1cc(C)nc(N2CCC(C(=O)NC3CC3)CC2)n1
    .	4	-2.7	.	-4	4	3.3%
[13] c1ccc(Cc2nnc3sc(Nc4ccccc4)nn23)cc1
    -8	9	2.8	5%	-10	0	?
[14] COc1ccccc1NC(=O)CN(Cc1ccco1)C(=O)c1cc(Cl)c(OC)c(OC)c1
    .	1	1.2	.	-12	-11	0.9%
[15] O=C1NC[C@@H](CCCCN2CCN(CC3CCCCC3)C(=O)C2=O)N(Cc2ccccc2)C1=O
    .	8	.	.	.	2	-0.2%
[16] CC(=O)C1=C(O)C(=O)N(c2ccc(C(=O)O)cc2)C1c1ccccc1 (stereo not given)
    16	-7	-0.3	-4%	-2	2	2.6%
[17] COc1cc(OC)cc(C(=O)N/N=C(\C)CC(=O)Nc2ccccn2)c1
    8	-2	-3.1	?	-17	8	5.5%
[18] CCC(C)NC(=O)CCNS(=O)(=O)c1ccc(Br)cc1 (stereo not given)
    -23	3	-0.6	7%	-9	4	-7.5%[38.3 µM]
[19] Cn1nnc(NC(=S)NC(=O)c2ccco2)n1
    -1	-1	-8.9	6.3µM*	-39	4	-1.7%
[20] c1cc(-c2n[nH]c(-c3ccncc3)n2)ccn1
    .	5	1.4	.	-4	5	-2.8%

From compound 14 as far as 16, copied from above:
Second line of a record: TRPV1 PAM	CtBP-E1A blk	D2 ag	Sfp PPTase inh	D2 PAM	Six1-Eya2 blk	PINK1 expr mod
[14] COc1ccccc1NC(=O)CN(Cc1ccco1)C(=O)c1cc(Cl)c(OC)c(OC)c1
    .	1	1.2	.	-12	-11	0.9%
[15] O=C1NC[C@@H](CCCCN2CCN(CC3CCCCC3)C(=O)C2=O)N(Cc2ccccc2)C1=O
    .	8	.	.	.	2	-0.2%
[16] CC(=O)C1=C(O)C(=O)N(c2ccc(C(=O)O)cc2)C1c1ccccc1 (stereo not given)
    16	-7	-0.3	-4%	-2	2	2.6%

Additional structures follow.
Second line of a record: TRPV1 PAM	CtBP-E1A blk	D2 ag	Sfp PPTase inh	D2 PAM	Six1-Eya2 blk	PINK1 expr mod
[21] O=C(NNC(=O)c1cccs1)c1ccccc1
    14	.	-4.8	6%	-32	4	-0.7%
[22] CC(C)(C)NC(=O)NC(=O)CSc1ncccn1
    0	.	-1.8	17%	0	1	0.7%
[23] CC(C(=O)Nc1ccc([N+](=O)[O-])cc1Cl)N1CCN(S(=O)(=O)c2cccs2)CC1 (stereo not given)
    -4	-10	3.6	.	5	0	-3.3%
[24] COCCNC(=O)/C(C#N)=C/c1ccc(C)o1
    0	-12	-4.4	5%	-3	3	1.4%
[25] CN(C)S(=O)(=O)c1ccc(C(=O)NCC2(N3CCOCC3)CCCCC2)cc1
    -45	0	-1.9	.	-3	-1	1.0%
[26] N#Cc1cn(-c2cccc(C(F)(F)F)c2)c(=O)[nH]c1=O
    -11	4	-0.8	7%	-4	-4	-0.4%
[27] COC(=O)c1ccc(NC(=S)NCCc2ccccc2C)cc1
    -10	-2	-3.2	2%	-17	-10	?
[28] COc1cccc(N(CC(=O)NC2CCCC2)C(=O)CCC(=O)Nc2nccs2)c1
    28	-6	-0.8	15%	-13	2	1.9%
[29] Cc1ccc(C)c(S(=O)(=O)c2c(N)n(/N=C/c3ccco3)c3nc4ccccc4nc23)c1
    0	9	-3.5	50µM*	-6	-6	3.0%[38.3 µM]
[30] Cc1csc(Nc2ccccc2C(F)(F)F)n1
    -8	-3	0.3	-1%	-9	-10	2.7%
[31] COc1ccccc1C(=O)NNS(=O)(=O)c1ccc(F)cc1
    ?	5	-0.6	-3%	-1	6	0.7%
[32] Cc1ccc(/C=N/NC(=O)Cn2cnc3c2c(=O)n(C)c(=O)n3C)s1
    14	-10	-0.2	35%	-6	-14	-2.0%
[33] CCOC(=O)c1c(NC(=O)CSc2nnc(-c3c[nH]c4ccccc34)n2CC)sc2c1CCCC2
    8	1	0.4	2%	-1	-1	0.4%
[34] CC(NC(=O)C1=CC=CN2CCS(=O)(=O)N=C12)c1ccc(Cl)cc1Cl (stereo not given)
    -1	-5	-0.1	.	-8	7	-0.4%
[35] O=C(CCc1nnc2ccc(NCc3ccccc3Cl)nn12)NC1CCCCC1
    -6	0	-3.0	-13%	-1	21	0.4%
[36] CC1CCN(S(=O)(=O)c2ccc3c(c2)N(CC(=O)NCCCN2CCCC(C)C2)C(=O)CO3)CC1 (stereo not given)
    -3	6	0.7	-8%	-20	21	-0.3%
[37] COc1cc(NC(=O)c2cc(=O)[nH]c3ccc(S(=O)(=O)N4CCOCC4)cc23)cc(OC)c1
    2	1	-3.0	.	-12	-6	1.2%
[38] O=C(NCCNC(=O)c1ccc(Br)o1)c1cccnc1
    14	2	-0.1	22%	-10	-7	1.2%
[39] O=C(O)CCc1nn2cnc3sc4c(c3c2nc1=O)CCCC4
    3	-4	-0.3	?	-8	-1	2.7%[38.3 µM]
[40] O=C(Nc1ccccc1)C1=C[C@H](c2ccc3c(c2)OCO3)C[C@H](OCc2ccc(CO)cc2)O1
    -1	-24	0.8	2%	-4	-8	-2.2%
[41] NC(=S)Nc1ccc(F)c(F)c1F
    14	.	0.0	17%	-16	1	0.5%
[42] N#C/C(=N\Nc1ccc([N+](=O)[O-])cc1)C(N)=S
    19	-9	-17	45µM*	-30	?	25µM*
[43] COc1cc(/C=N/NC(=S)NC2CC3C=CC2C3)cc(OC)c1OC (stereo not given)
    2	-6	7.8	3%	6	-6	0.4%
[44] CC(=O)Nc1ccc(NC(=O)C(C)OC(=O)c2cc(S(=O)(=O)N(C)C)ccc2N2CCCC2)cc1 (stereo not given)
    13	-4	4.1	.	6	-9	-0.8%
[45] CCN1CCc2nc(NC(=O)C(c3ccccc3)c3ccccc3)sc2C1
    3	-8	-3.0	3%	-12	-2	-1.0%
[46] CCC(=O)N(Cc1cc2ccccc2[nH]c1=O)c1ccccc1OC
    3	6	-6.3	7%	-2	13	0.7%
[47] CN(CC(=O)Nc1ccccc1Cl)C(=O)CSc1nnc(N)s1
    3	6	0.2	.	-7	-3	1.0%
[48] O=C(c1ccc(Cl)cc1)N(Cc1cccs1)C1CCS(=O)(=O)C1 (stereo not given)
    -37	8	0.2	14%	3	8	-2.3%
[49] COCCN1C[C@@H](CO)O[C@@H](n2cnc3c(N4CCN(CCO)CC4)ncnc32)C1
    .	7	-2.9	.	-1	2	-0.3%
[50] CC1=C(C(=O)N2CCOCC2)C(c2ccc(O)cc2)NC(=S)N1 (stereo not given)
    -1	-5	-4.9	?	-17	4	3.8%
[51] O=C(NCC(c1ccco1)N1CCN(c2ccccc2F)CC1)c1cccs1 (stereo not given)
    21	-2	?	.	4	-2	-0.5%
[52] CCSC1=NCN(CCCC(=O)O)CN1
    0	14	-1.2	?	-3	0	0.2%
[53] Cc1cc(NC(=O)C2CC(c3c(F)cccc3Cl)=NO2)n(-c2ccccc2)n1 (stereo not given)
    -10	.	0.0	9%	-7	3	-1.3%
[54] CC(OC(=O)c1ccccc1NCCO)C(=O)Nc1ccnn1C(C)C (stereo not given)
    -1	1	-1.2	.	-3	12	0.5%
[55] Cc1nn2c3c(cnc2c1-c1ccccc1)C(=O)CCC3
    8	8	-3.2	5%	-15	0	2.5%
[56] CCCC(C)(C)C(=O)N1CCC1(C)C(=O)NS(=O)(=O)c1ccccc1Cl (stereo not given)
    .	12	0.4	.	-3	9	3.0%
[57] O=S(=O)(c1ccc2ccccc2c1)N1CCN(Cc2ccccn2)CC1
    15	0	-2.9	71µM*	-6	-1	-0.7%
[58] CC1CCCC(C)N1CC(O)COCc1ccccc1F (stereo not given)
    8	-20	-3.0	-3%	-11	-2	1.5%
[59] COc1ccc(NC(=O)C2CCCC2)cc1S(=O)(=O)N1CCOCC1
    6	3	1.6	.	18	2	2.3%
[60] CCCNC(=S)N1CCC(c2nc3cc(C)c(C)cc3[nH]2)CC1
    3	11	0.1	2%	-15	-4	-3.0%[38.3 µM]
[61] CCN(C1CCS(=O)(=O)C1)S(=O)(=O)c1cc(C)ccc1C (stereo not given)
    4	-7	2.7	.	0	3	-1.4%
[62] COc1ccc(/C=C(\NC(=O)c2cccs2)C(=O)N2CCOCC2)cc1OC
    -5	6	-2.7	1%	-5	4	-1.9%
[63] Cc1cc(C)c(NC(=O)CSc2nnc(CNC(=O)c3c(F)cccc3Cl)o2)c(C)c1
    14	7	0.6	7%	-5	1	1.3%
[64] O=C1C2CCCCN2C(=O)N1CCCCN1CCN(c2cccc(Cl)c2)CC1 (stereo not given)
    24	7	3.5	-1%	-11	-20	0.0%
[65] COc1cccc(NC(=O)CCc2nnc3ccc(N4CCN(c5cccc(OC)c5)CC4)nn23)c1
    23	-9	1.1	2%	-5	-9	1.7%
[66] Cc1cc(-c2ccccc2)n[nH]1
    10	-1	-4.6	10%	-5	3	6.4%
[67] CCOc1ccc(CCN2C(=S)N([C@@H](CC(C)C)CN3CCC[C@@H]3CN3C(=S)NC[C@@H]3Cc3ccc(O)cc3)C[C@@H]2Cc2ccc(O)cc2)cc1
    .	-6	-0.3	.	-7	-5	0.5%
